eIF4H FP inh = inhibitors of RNA binding by human eIF4H | inhibition, % at 35 µM | AID 2012 | Q15056 | eIF4H fluorescence polarization binding assay | 290,000 tested, 0.94% active;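 active = 50% or more with normal probe brightness, or confirmed in later tests; inconclusive = above 50% with abnormal brightness, or retests that disagree; inactive = below 50% or failed in later tests; about a fifth of its hits are not listed in these tables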;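 note: calls also rest on retests at 20 µM and on dose response follow-up; 0% = protein and probe with vehicle and 100% = probe without protein; strong numbers were not always called active; many hits fall short of the cut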
HIV Env fusion = blocks HIV Env-driven cell-cell fusion | HeLa-JRFL Env/CEM21 cell fusion, luciferase | AID 651610 | 360,000 tested, 1.1% active | inhibition, % at 12.3 µM;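 active = mean replicate inhibition score of at least 50 and every replicate individually at or above 50; inconclusive = only one of the two criteria met; inactive = mean below 50 and not all replicates reaching 50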;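 note: 0% = plate neutral controls and 100% = maraviroc near 300 nM; one replicate is shown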
UUG fidelity = alters start codon recognition fidelity in yeast | 350,000 tested, 0.13% active | S. cerevisiae UUG-firefly luciferase reporter, luminescence/redox ratio | activity score, % at 18.7 µM | AID 602363;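 active = replicate mean at a twofold rise or more, about +100% in these data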;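 note: firefly luciferase made from a UUG start codon reports start codon fidelity; reporter light over untreated wells divided by growth signal over untreated wells; some hits fall short of that in this replicate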
CSC inhib = blocks cancer stem cells | 300,000 tested, 1.1% active | cancer stem cell-like cells viability, luminescence | inhibition, % at 7.5 µM;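 active = mean at 75% or more and at least half the replicates too; inconclusive = mean and replicates disagree; tested in HMLE shEcad cells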;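 note: 0% = median of negative and 100% = median of positive control wells; the first replicate is given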
Rce1 inhib = inhibitors of yeast Ras-converting enzyme; Q03530; yeast membranes, quenched prenylated peptide cleavage fluorescence; calls only; 290,000 tested, 0.27% active; AID 2563;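 active = fall in fluorescence gain of 50% or more versus controls, with final raw signal at or below 3038400; inconclusive = same 50% fall but final raw signal above 3038400; inactive = fall in fluorescence gain under 50%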;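 note: plate controls were neutral control wells for no effect and wells lacking membranes for full effect; tested at 10 µM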
Target sequence (Q03530 whole entry, looked up): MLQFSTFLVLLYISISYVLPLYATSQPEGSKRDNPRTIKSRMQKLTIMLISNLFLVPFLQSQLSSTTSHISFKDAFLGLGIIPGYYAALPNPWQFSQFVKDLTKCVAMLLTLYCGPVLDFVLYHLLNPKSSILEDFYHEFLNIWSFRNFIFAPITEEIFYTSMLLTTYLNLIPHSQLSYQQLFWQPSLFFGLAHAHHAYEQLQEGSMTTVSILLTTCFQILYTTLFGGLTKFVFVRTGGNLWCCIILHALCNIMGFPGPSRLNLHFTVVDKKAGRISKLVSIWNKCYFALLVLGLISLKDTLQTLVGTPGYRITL
MT1-MMP act inh = blocks activation of human MT1-MMP; P50281; HT1080 RFP-PRO-GFP cells, GFP/RFP ratio fluorescence, overnight; percent of plate control window, DMSO zero; GFP/RFP ratio change, % at 20 µM; 360,000 tested, 0.061% active;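 active = GFP/RFP ratio change of at least 30% with cell ATP level not reduced by more than half and red fluorescence within 50% of control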; note: strong numbers were not always called active
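Test system: HT1080 RFP-PRO-GFP cells; Benchmarks: DMSO and RFP-L50D-GFP cell wells; Timing: cells overnight before dosing, compound overnight, 37 °C, 5% CO2; Compound: one 20 µM compound dose with 1% DMSO; Read-out: GFP/RFP fluorescence ratio.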
PABP FP inh = blocks human PABP binding to poly(A) RNA. P11940. inhibition, % at 35 µM. fluorescence polarization. 290,000 tested, 1% active;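 active = 50% or more with normal probe brightness, or confirmed in later tests; inconclusive = above 50% with abnormal brightness, or retests that disagree; inactive = below 50% or failed in later tests; about a fifth of its hits are not listed in these tables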;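 note: calls also rest on retests at 20 µM and on dose response follow-up; controls were probe without protein and protein plus probe with vehicle; some compounds called inactive have numbers as strong as hits; many hits fall short of the cut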
Target sequence (P11940 whole entry, looked up): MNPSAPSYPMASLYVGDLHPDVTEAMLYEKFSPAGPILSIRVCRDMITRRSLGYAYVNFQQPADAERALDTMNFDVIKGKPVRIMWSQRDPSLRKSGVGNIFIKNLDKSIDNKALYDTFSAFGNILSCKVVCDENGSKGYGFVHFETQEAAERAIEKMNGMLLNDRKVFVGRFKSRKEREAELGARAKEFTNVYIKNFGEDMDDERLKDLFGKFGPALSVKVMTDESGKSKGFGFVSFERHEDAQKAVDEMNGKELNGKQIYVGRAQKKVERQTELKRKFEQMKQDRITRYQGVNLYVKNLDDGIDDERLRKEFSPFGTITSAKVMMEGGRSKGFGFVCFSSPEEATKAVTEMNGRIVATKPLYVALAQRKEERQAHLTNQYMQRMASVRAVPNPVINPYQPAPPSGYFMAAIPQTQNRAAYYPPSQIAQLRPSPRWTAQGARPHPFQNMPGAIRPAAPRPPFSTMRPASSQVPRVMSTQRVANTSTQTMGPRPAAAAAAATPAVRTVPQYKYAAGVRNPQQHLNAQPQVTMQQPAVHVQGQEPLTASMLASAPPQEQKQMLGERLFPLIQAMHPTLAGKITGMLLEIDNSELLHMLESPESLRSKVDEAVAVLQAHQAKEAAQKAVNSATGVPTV
MT1-MMP act inh RFP = recorded beside MT1-MMP act inh, whose call it bears; RFP signal change, %; measured here: RFP expression control read;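 0 = vehicle wells; hits needed this value within 50% of zero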
Active calls of the source: *; i = inactive; ? = inconclusive; . = no result given; + = active, no number.

Below each SMILES: MT1-MMP act inh RFP, CSC inhib, HIV Env fusion, UUG fidelity, eIF4H FP inh, PABP FP inh, Rce1 inhib, MT1-MMP act inh
[1] COc1cc(/C=C/C(=O)O)cc(S(=O)(=O)N(CC(C)C)CC(C)C)c1OC
  -4, 7, -5, -10, -5, 13, i, -2
[2] COc1ccccc1S(=O)(=O)Cc1ccc(C(=O)N2CCN(c3ccc(C)cc3)C(C)C2)o1 (configuration not stated)
  -7, 27, 16, -3, 6, 0, i, 6
[3] CC(/C=C1\SC(=Nc2cccnc2)NC1=O)=C\c1ccccc1
  -15, 61, -14, -9, 3, -7, i, -9
[4] Cc1cc2c(c(=O)n1CCN(C)C)C(c1ccccc1Br)C(C#N)=C(N)O2 (configuration not stated)
  6, -14, ., ., 4, 3, i, -5
[5] COc1ccc(C(=O)NCCc2nnc3ccc(SCC(=O)Nc4ccccc4)nn23)cc1
  0, -21, -8, 0, 2, 2, i, -6
[6] COc1cc(/C=C2/SC(=Nc3ccc(O)cc3)NC2=O)cc(OC)c1O
  10, ., -60, ., -7, 1, i, -126
[7] O=C(c1cc(-c2ccccn2)nc2ccc(Br)cc12)N1CCc2ccccc2C1
  ., ., ., ., 3, 10, i, .
[8] COc1ccc(C(=O)N/C(=C\c2ccc(Cl)cc2)C(=O)NCc2ccncc2)cc1
  2, ., 1, 6, ., ., ., -3
[9] CCCCCc1ccc(OCCOCCn2c[n+](C)c3ccccc32)c(CCCCC)c1
  -40, ., ., ., 12, 1, +, -51
[10] COC(=O)Cc1csc(NC(=O)CSc2nncn2C)n1
  4, -3, -20, -9, ., ., ., -2
[11] O=c1cc(N2CCN(c3cccc(Cl)c3)CC2)[nH]c(=O)n1C1CCCCC1
  -8, 66, ., -14, -8, -1, i, -4
[12] CCn1c2ccccc2c2cc(NC(=O)COC(=O)C3CCC(=O)N3)ccc21 (configuration not stated)
  6, 2, ., -16, -1, -1, i, 1
[13] Cc1cc2nc(-c3ccco3)cc(C(F)(F)F)n2n1
  2, -13, -16, -2, -2, -15, i, 3
[14] CCOC(=O)C(=O)Nc1cc(C(=O)OC)cc(C(=O)OC)c1
  2, 1, 6, ., -1, -12, i, -2
[15] CCOC(=O)C1(Cc2ccccc2)CCN(Cc2ccc3c(c2)OCCO3)CC1
  2, 20, 3, ., 12, -1, i, 1
[16] Cn1c(N)c(C(=O)COC(=O)c2ccco2)c(=O)n(C)c1=O
  6, -6, ., -10, -2, -2, i, -3
[17] COc1ccc(-c2nc(CS(=O)(=O)CC(=O)Nc3cccc(C(C)=O)c3)c(C)o2)cc1
  -3, -4, 11, -21, -6, -18, i, 1
[18] CCOC(=O)C1CCCN(C(=O)CNS(=O)(=O)c2ccc(Br)s2)C1 (configuration not stated)
  2, 10, ., -2, -7, -15, i, 0
[19] Cc1ccc2cc(COC(=O)c3ccco3)c(=O)[nH]c2c1
  7, -15, ., -17, 3, 1, i, 0
[20] CNc1cc(-c2cccc(OC)c2F)nc2ccnn12
  -3, ., 27, -23, ., ., ., -3
[21] CC(C)NC(=O)COC(=O)/C=C/c1ccco1
  4, -15, ., ., 44, 0, i, -1
[22] CCOCc1nnc(NC(=O)c2cccs2)s1
  5, -9, -70, 0, 4, -11, i, 1
[23] COC(=O)C(CCSC)NS(=O)(=O)c1ccc(Cl)cc1 (configuration not stated)
  0, ., -15, ., 7, 3, i, -3
[24] COc1ccc(N2CCN(CCCNC(=O)C(=O)c3c(C)[nH]c4ccccc34)CC2)cc1
  1, 2, -5, -5, -10, 8, i, 1
[25] O=C(COC(=O)c1cc(=O)[nH]c2ccccc12)Nc1ccc(F)cc1F
  2, -13, -30, -17, ., ., ., -2
[26] COCCNC(=O)c1ccccc1N(Cc1ccccc1)S(=O)(=O)c1ccc(C)cc1
  3, 6, 0, ., -14, -8, i, 2
[27] CCN1C(=O)[C@H]2[C@@H](c3ccc(-c4ccc(Cl)c(Cl)c4)cc3)N[C@@](Cc3ccccc3)(C(=O)OC)[C@H]2C1=O
  -3, -5, 7, -20, ., ., i, -3
[28] COc1ccc(-c2ccn(-c3cccc(F)n3)n2)cc1
  4, ., -43, ., ?, 4, ., -4
[29] CC(C)[C@H](N)C(=O)NC[C@H](CC(=O)NC[C@H]1CC[C@H](C(=O)O)CC1)c1ccc(Cl)cc1
  3, -5, -1, 4, 1, 12, i, -1
[30] O=C(CCN1CCN(CCO)CC1)Nc1ccc(C2CCCC2)cc1
  0, 34, -8, ., 4, 19, i, 2
[31] CCSc1nc2c(c(=O)[nH]c(=O)n2C)n1Cc1ccc(Cl)cc1
  -3, -7, ., 1, 2, 11, ., -5
[32] COc1ccc(/C=N/NC(=O)c2cccc(NC(=O)c3ccc(Cl)cc3)c2)c(OC)c1
  5, 15, 4, ., -4, 0, i, 2
[33] COc1ccccc1NC(=O)C1CCN(S(C)(=O)=O)CC1
  -3, -9, -53, -1, -2, -3, i, -3
[34] O=c1n(Cc2ccccc2)nc2n1-c1ccccc1SC2
  -5, -6, -40, ., -20, 10, i, 2
[35] CC(NC(=O)c1ccnn1C)C1CCCO1 (configuration not stated)
  6, -22, -5, ., 4, 8, i, 1
[36] Cc1ccccc1CN1CCN(S(=O)(=O)c2cccc3nsnc23)CC1
  -2, -2, -1, 4, 4, 6, i, -2
[37] COc1ccc(S(=O)(=O)C(C#N)c2nc3ccccc3nc2N2CCCCC2)cc1 (configuration not stated)
  12, 4, ., -32, 97*, 103*, i, -68
[38] O=P(c1cccs1)(c1cccs1)c1cccs1
  0, -17, 23, -8, -5, 4, i, 3
[39] CNc1nc(SCc2ccccc2)nc(N2CCOCC2)n1
  -1, 2, -23, 18, -9, -4, i, 4
[40] CC1CCCC(n2c(=S)[nH]c3ccccc3c2=O)C1C (configuration not stated)
  -7, 46, 11, -30, 5, 9, i, -2
[41] Cc1noc(C)c1NC(=O)N(C)C[C@H]1Oc2ccc(NC(=O)Nc3ccccc3)cc2C(=O)N([C@H](C)CO)C[C@@H]1C
  3, ., -10, -17, ., ., ., 5
[42] CC1CCN(CC(=O)N2c3ccccc3CC2C)CC1 (configuration not stated)
  4, -7, -16, ., -15, 10, i, 3
[43] CCN(CC)S(=O)(=O)c1cc(NC(=O)CCNC(=O)c2ccco2)ccc1C
  -7, -12, 59*, -2, 15, 0, i, -2
[44] O=C(Cc1cccc([N+](=O)[O-])c1)Nc1cccc(C(=O)N2CCCC2)c1
  1, -13, 11, -14, ., ., ., -2
[45] COc1ccc(C2C(C(C)=O)=C(Nc3ccccc3)CC(C)(O)C2C(C)=O)cc1OC (configuration not stated)
  4, -8, 3, -2, 9, -9, i, -15
[46] C/C(=N\Nc1ccccc1[N+](=O)[O-])c1ccccc1O
  -2, -3, -192, -11, 10, 5, i, 6
[47] C/C(Cl)=C/Cn1c(SC(C)C)nc2c1c(=O)[nH]c(=O)n2C
  2, -5, ., -24, -8, 0, ., 5
[48] CCOc1ccc(S(=O)(=O)c2cn(C)c3cc(OC)c(OC)cc3c2=O)cc1
  -1, -23, 0, -8, -6, 1, i, -2
[49] Cc1nnc(SCC(=O)NCC(=O)Nc2ccc(F)c(F)c2F)n1Cc1ccccc1
  4, 3, -4, ., -10, 7, i, -3
[50] Cc1occc1-c1nnc(SCC(=O)O)n1-c1ccccc1
  5, -12, 6, 4, 0, 6, i, 3
[51] COCCCNC(=O)CN1C(=O)COc2ccc(S(=O)(=O)N3CC(C)CC(C)C3)cc21 (configuration not stated)
  1, 12, 12, -3, 6, 14, i, -4
[52] CC(NC(=O)c1cc(COc2ccc3ncccc3c2)on1)c1ccc(F)cc1 (configuration not stated)
  -27, 56, 5, -10, -8, 7, i, 12
[53] CC(=O)c1ccc(NC(=O)NNS(=O)(=O)c2ccc(F)cc2)cc1
  -3, -6, -8, -9, -6, -2, i, -4
[54] O=C(CC(c1ccccc1)c1ccccc1O)NCc1ccco1 (configuration not stated)
  0, 4, ., 6, -6, 9, i, 2
[55] CNC(=O)COC(=O)c1[nH]c(C)c(C(C)=O)c1C
  4, ., -40, ., -2, -14, i, 7
[56] Cc1cc(C(=O)NNS(=O)(=O)c2ccc(C(C)(C)C)cc2)nn1C(C)(C)C
  3, 35, 19, ., -4, -3, ., 0
[57] CCc1ccc(N2C(=O)C3C4C=CC(CC4)C3C2=O)cc1 (configuration not stated)
  -4, 40, -11, -4, -6, 6, i, 2
[58] COC(=O)c1ccc(-c2ccco2)n1Cc1cccc(C)c1
  1, 12, -50, -25, 0, 1, i, -2
[59] COc1ccccc1N(CC(=O)Nc1c(C)n(C)n(-c2ccccc2)c1=O)S(=O)(=O)c1ccc(C)cc1
  -1, -7, 3, -12, 3, 4, i, -2
[60] CCOC(=O)c1c(C)[nH]c(C)c1S(=O)(=O)N(C)CC(=O)Nc1cccc(C)c1
  -1, -19, 10, -6, -4, 2, i, 3

Grouped by structure: those above with a COOH group (3)
Below each SMILES: MT1-MMP act inh RFP, CSC inhib, HIV Env fusion, UUG fidelity, eIF4H FP inh, PABP FP inh, Rce1 inhib, MT1-MMP act inh
[1] COc1cc(/C=C/C(=O)O)cc(S(=O)(=O)N(CC(C)C)CC(C)C)c1OC
  -4, 7, -5, -10, -5, 13, i, -2
[29] CC(C)[C@H](N)C(=O)NC[C@H](CC(=O)NC[C@H]1CC[C@H](C(=O)O)CC1)c1ccc(Cl)cc1
  3, -5, -1, 4, 1, 12, i, -1
[50] Cc1occc1-c1nnc(SCC(=O)O)n1-c1ccccc1
  5, -12, 6, 4, 0, 6, i, 3

Profiles from above. Order of screens: MT1-MMP act inh RFP, CSC inhib, HIV Env fusion, UUG fidelity, eIF4H FP inh, PABP FP inh, Rce1 inhib, MT1-MMP act inh
CC(=O)c1ccc(NC(=O)NNS(=O)(=O)c2ccc(F)cc2)cc1 across the screens: -3, -6, -8, -9, -6, -2, i, -4
COc1ccc(C2C(C(C)=O)=C(Nc3ccccc3)CC(C)(O)C2C(C)=O)cc1OC (configuration not stated) across the screens: 4, -8, 3, -2, 9, -9, i, -15
C/C(Cl)=C/Cn1c(SC(C)C)nc2c1c(=O)[nH]c(=O)n2C across the screens: 2, -5, ., -24, -8, 0, ., 5
CCN(CC)S(=O)(=O)c1cc(NC(=O)CCNC(=O)c2ccco2)ccc1C across the screens: -7, -12, 59*, -2, 15, 0, i, -2
COCCCNC(=O)CN1C(=O)COc2ccc(S(=O)(=O)N3CC(C)CC(C)C3)cc21 (configuration not stated) across the screens: 1, 12, 12, -3, 6, 14, i, -4
